High-throughput results deposited in PubChem BioAssay by Broad Institute.
MLL AF4-AF9 inh: inhibitors of AF4 peptide binding to AF9, primary screen, biochemical, AlphaScreen, biotin-AF4 peptide, FLAG-AF9, single point; 350,000 compounds, 0.47% hits; inhibition, % at 10 µM; AID 651704, 2012;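 active = every replicate reaching a set inhibition limit, whatever the replicate mean, cut at about 25% in these data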;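 also: 0% = plate neutral control median and 100% = total signal loss; the record names both 10 and 1 µM as test concentration; the first replicate is given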
Target sequence (P42568 whole entry, looked up): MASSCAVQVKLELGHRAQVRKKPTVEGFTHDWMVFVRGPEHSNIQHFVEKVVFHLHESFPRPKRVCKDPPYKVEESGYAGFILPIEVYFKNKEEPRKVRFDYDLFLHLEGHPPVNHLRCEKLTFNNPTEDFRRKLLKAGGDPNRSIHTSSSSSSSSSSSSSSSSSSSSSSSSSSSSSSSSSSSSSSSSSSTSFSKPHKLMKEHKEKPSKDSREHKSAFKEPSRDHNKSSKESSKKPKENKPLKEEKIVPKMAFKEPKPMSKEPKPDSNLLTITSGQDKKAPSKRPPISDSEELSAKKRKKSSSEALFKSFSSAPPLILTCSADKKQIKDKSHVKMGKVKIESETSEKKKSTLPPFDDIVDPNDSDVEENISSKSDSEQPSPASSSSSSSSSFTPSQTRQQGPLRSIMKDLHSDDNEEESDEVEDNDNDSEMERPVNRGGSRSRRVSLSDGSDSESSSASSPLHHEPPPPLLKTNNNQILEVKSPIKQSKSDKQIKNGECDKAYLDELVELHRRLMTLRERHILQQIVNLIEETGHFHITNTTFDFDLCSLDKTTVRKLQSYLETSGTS
Ecoli rRNA inh: reduced GFP signal of wild-type E. coli, primary screen, bacterial rRNA inhibitor project, GFP/RFP fluorescence, OD600, single point; AID 720706, 2013; GFP signal change (wild-type ribosome), % (no concentration beside the values); 350,000 compounds, 1.6% hits; E. coli WT GFP vs humanized-ribosome RFP mutants, 24 h; hits give low values; DMSO median 0, no signal -100;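 active = significant combined selectivity score with lowered wild-type GFP, culture density cut under 30%, mutant RFP and density less affected; inactive = any of these conditions unmet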; also: one replicate is shown; some compounds called inactive have numbers as strong as hits
FGF22 binding: binders of human FGF22 protein, primary screen, FGF22 synaptogenesis inhibitor project, biophysical, thermal shift, single point | 340,000 compounds, 1.5% hits | calls only at 9.99 µM | AID 651658, 2012 | Fibroblast growth factor 22 (Homo sapiens), Q9HCT0 | recombinant FGF22 thermal shift, SYPRO orange fluorescence; percent of sucrose octasulfate shift, DMSO zero;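 active = melting point raised past a set limit in the mean and every replicate; three in four hits are not shown here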
Target sequence (Q9HCT0 whole entry, looked up): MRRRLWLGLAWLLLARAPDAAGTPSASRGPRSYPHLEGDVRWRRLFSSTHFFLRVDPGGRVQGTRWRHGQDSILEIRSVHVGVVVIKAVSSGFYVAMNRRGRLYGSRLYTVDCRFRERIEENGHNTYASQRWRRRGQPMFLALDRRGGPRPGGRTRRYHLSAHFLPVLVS
Ecoli rRNA inh OD600: further read-out of Ecoli rRNA inh, marked with its call; OD600 change, %; measured here: OD600 growth;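 optical density of the mix in the first replicate; 0 = DMSO median and -100 = no signal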
Ecoli rRNA inh RFP: also measured in Ecoli rRNA inh; calls as there; RFP signal change, %; measured here: RFP humanized mutant strains;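 first replicate; 0 = DMSO median and -100 = no signal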
An asterisk follows results filed as active; i = inactive; & = joins results of further samples. These rows are one share of the data, so the mix of outcomes need not match the whole.

SMILES | MLL AF4-AF9 inh | Ecoli rRNA inh | Ecoli rRNA inh OD600 | Ecoli rRNA inh RFP | FGF22 binding
CCC(=O)N1CC2(CCN(C(=O)Nc3ccccc3F)CC2)c2c([nH]c3cc(OC)ccc23)[C@@H]1CO | 0.8 | -0.2 | 9.8 | 0.2 | i
C[C@@H]1CN([C@@H](C)CO)C(=O)c2cc(NS(=O)(=O)c3ccccc3)ccc2O[C@@H]1CN(C)S(=O)(=O)c1ccccc1 | 1.6 | -4.3 | -3.5 | 4.8 | i
C[C@@H]1CN([C@H](C)CO)C(=O)c2cc(C#Cc3ccccn3)cnc2O[C@@H]1CN(C)Cc1ccncc1 | -6.6 | 2.4 | 6.4 | 3.8 | i
C[C@@H]1CCCCO[C@H](CN(C)Cc2ccccc2)[C@@H](C)CN([C@H](C)CO)C(=O)c2cc(NC(=O)Cc3ccccc3)ccc2O1 | -1.0 | 3.6 | 7.5 | -3.5 | i
CN(C)C(=O)c1ccc(-c2ccc([C@H]3[C@@H](CO)N4CCCCN(CCC(F)(F)F)C[C@H]34)cc2)cc1 | -0.7 | 6.0 | 22.5 | -0.4 | i
COc1ccccc1N1CCN(CCC(=O)Nc2cccc(F)c2)CC1 | 6.5 | 7.3 | 7.5 | 0.7 | i
COc1ccc2c3c([nH]c2c1)[C@@H](CO)N(CC1CC1)CC31CN(C(=O)NC2CCCC2)C1 | 0.5 | -2.7 | 9.3 | 0.5 | i
C[C@@H]1CN([C@H](C)CO)C(=O)Cc2cc(NC(=O)Nc3ccccc3)ccc2O[C@H]1CN(C)CC1CCCCC1 | 2.6 | -3.4 | -5.1 | 0.4 | i
COc1ccc(-c2cnc3c(NC(C)=O)cc(-c4ccc(C(=O)N5CCOCC5)cc4)cn23)cc1OC | 3.2 | 2.5 | -6.9 | -2.0 | i
O=C(NCCCN1CCOCC1)[C@@H]1[C@@H](CO)[C@@H]2Cn3c(ccc(C4=CCCCC4)c3=O)[C@H]1N2 | 2.1 | 1.1 | 12.4 | -1.0 | i
CS(=O)(=O)N1[C@H](C#N)[C@@H](c2ccccc2)[C@@H]1CO | -0.4 | -1.8 | 3.3 | -1.8 | i
COCC(=O)Nc1ccc2c(c1)OC[C@@H](C)N(C(=O)Cc1ccccn1)C[C@H](C)[C@@H](OC)CN(C)C2=O | -1.4 | -0.6 | 0.8 | -2.6 | i

The closing 2 records of the section before come first, to join the parts.
SMILES | MLL AF4-AF9 inh | Ecoli rRNA inh | Ecoli rRNA inh OD600 | Ecoli rRNA inh RFP | FGF22 binding
CS(=O)(=O)N1[C@H](C#N)[C@@H](c2ccccc2)[C@@H]1CO | -0.4 | -1.8 | 3.3 | -1.8 | i
COCC(=O)Nc1ccc2c(c1)OC[C@@H](C)N(C(=O)Cc1ccccn1)C[C@H](C)[C@@H](OC)CN(C)C2=O | -1.4 | -0.6 | 0.8 | -2.6 | i
COc1ccc(NC(=O)N(C)C[C@@H]2Oc3c(NC(=O)C4CCOCC4)cccc3C(=O)N([C@H](C)CO)C[C@H]2C)cc1 | -14.3 | 3.0 | 8.4 | -0.4 | i
COCC(=O)N1CC2(C1)[C@@H](c1ccc(-c3cccc(F)c3)cc1)[C@@H](CO)N2C(=O)COC | 0.9 | -0.8 | -0.4 | -1.4 | i
Cc1cc(C)cc(CC(=O)N2CCC2(C)C(=O)NS(=O)(=O)c2ccc(C(C)(C)C)cc2)c1 (stereo not given) | -2.9 | -10.6 | -13.5 | -0.1 | i
C[C@H](CO)N1C[C@H](C)[C@@H](CN(C)CC2CCCCC2)OCCCC[C@H](C)Oc2ccc(NS(C)(=O)=O)cc2C1=O | 5.8 | 0.1 | -2.9 | -1.8 | i
COc1ccc(-c2csc(C(C)(O)c3ccc(F)c(F)c3)n2)cn1 (stereo not given) | 4.8 | 3.2 | -43.8 | -2.9 | i
COC(=O)C[C@@H]1C=C[C@@H](NS(=O)(=O)c2ccccc2OC)[C@@H](CO)O1 | -0.5 | 15.2 | 1.9 | 3.6 | i
CCCNC(=O)N1C[C@@H]2[C@H](c3ccccc31)[C@H](CO)N2Cc1ccccc1F | -0.2 | -1.3 | 12.7 | -2.3 | i
C[C@@H]1CN([C@@H](C)CO)C(=O)c2cccc(NC(=O)CCCCCC(=O)Nc3ccccc3N)c2O[C@H]1CN(C)S(=O)(=O)c1cn(C)cn1 | 1.6 | -1.1 | 3.2 | -3.0 | i
Cc1noc(C)c1NC(=O)N(C)C[C@H]1Oc2c(NC(=O)c3cnccn3)cccc2C(=O)N([C@@H](C)CO)C[C@@H]1C | -3.9 | 1.4 | 7.1 | 0.3 | i
C[C@H](CO)N1C[C@H](C)[C@H](CN(C)Cc2ccncc2)Oc2ncc(Br)cc2C1=O | 2.9&-5.0&-3.9 | 2.0&6.1 | 5.1&6.7 | -1.0&-1.6 | i
Cc1cccc(C)c1NC(=O)CN1CCCC1 | -2.1 | 4.7 | 16.2 | -0.2 | i
C/C=C/c1cccc(-c2nc(C(=O)NC3CCC3)cc3c2[C@H](CCO)N(S(=O)C(C)(C)C)C3)c1 (stereo not given in full) | -0.5 | -1.1 | -2.8 | -6.8 | i
CCCN(C)C[C@H]1Oc2cc(-c3cncnc3)ccc2S(=O)(=O)N([C@@H](C)CO)C[C@H]1C | -1.8 | 9.9 | 8.6 | 1.4 | i
COc1ccc(NC(=O)N(C)C[C@H]2OCCCC[C@@H](C)Oc3ccc(NC(=O)C4CCCCC4)cc3C(=O)N([C@H](C)CO)C[C@@H]2C)cc1 | 1.9 | -2.4 | -7.6 | -2.2 | i
Cc1cccc(-c2cnc(C(O)c3ccc(F)c(C)c3)[nH]2)c1 (stereo not given) | 8.4 | -2.7 | -17.4 | -1.3 | i
CC(C)C[C@H]1CN([C@@H](CC(C)C)CN2CCC[C@@H]2CN2C(=S)NC[C@@H]2Cc2ccc(O)cc2)C(=S)N1CCc1ccccc1 | 2.6 | 18.5 | 3.6 | 15.9 | i
COc1ccc(NC(=O)Nc2ccc3c(c2)C(=O)N([C@H](C)CO)C[C@@H](C)[C@H](CN(C)C(=O)Nc2ccccc2)OCCCC[C@@H](C)O3)cc1 | -6.3 | 0.7 | 1.9 | -2.9 | i
COc1ccc(S(=O)(=O)N(C)C[C@@H]2OCCCC[C@@H](C)Oc3ccc(NC(=O)Nc4ccc(C(F)(F)F)cc4)cc3C(=O)N([C@H](C)CO)C[C@H]2C)cc1 | -17.3 | 3.3 | 2.5 | -3.8 | i
CO[C@H]1CN(C)C(=O)c2cc(NS(C)(=O)=O)ccc2OC[C@@H](C)N(C(=O)C2CC2)C[C@H]1C | -0.9 | 2.9 | 6.6 | -1.9 | i
NC(=O)C1CC2(C1)CC(C(N)=O)C2 (stereo not given) | -2.7 | 15.3 | 10.5 | 3.3 | i
OC[C@H]1[C@H](c2ccc(-c3cccnc3)cc2)[C@H]2CN(CC3CC3)CCCCN21 | 2.8 | 4.2 | -5.5 | 0.5 | i
c1ccc(N=NC2=NN(c3ccccc3)CS2)cc1 | 3.2 | -29.5* | -14.7* | -4.2* | i
C[C@H]1CN([C@@H](C)CO)C(=O)c2cc(NC(=O)C3CC3)ccc2O[C@H]1CN(C)Cc1ccc(C(=O)Nc2ccccc2N)cc1 | -0.1 | -1.9 | -0.3 | -1.1 | i
COc1ccc(NC(=O)Nc2ccc3c(c2)C(=O)N([C@H](C)CO)C[C@@H](C)[C@H](CN(C)S(=O)(=O)c2ccc(F)cc2)OCCCC[C@H](C)O3)cc1 | 1.4 | -0.1 | 5.1 | 1.4 | i
CC(C)NC(=O)Nc1ccc2c(c1)C(=O)N([C@H](C)CO)C[C@H](C)[C@H](CN(C)Cc1ccc3c(c1)OCO3)O2 | -2.6 | 4.0 | 5.9 | -1.1 | i
CCCN(CC(=O)Nc1ccccc1C)C(=O)CCCNC(=O)c1ccc(Cl)cc1 | -1.1 | 3.3 | -0.4 | 0.2 | i
CC1CCCC(C)N1C(=O)CN1C(=O)NC2(CCCCCC2)C1=O (stereo not given) | 0.7 | 7.4 | 12.0 | -1.9 | i
CC(C)CN(C[C@@H]1N[C@@H](CO)[C@H]1c1ccccc1)C(=O)CN(C)C | -1.0 | 2.6 | 5.8 | -4.0 | i
N#Cc1cccc(-c2ccc3c(c2)[C@@H]2[C@@H](CCN2S(=O)(=O)c2ccccc2)[C@@H](CO)N3)c1 | 1.3 | -12.2 | -29.1 | 2.0 | i
CCOC(=O)[C@]12CCC=C1N(Cc1ccco1)C(=O)[C@H](CC(=O)N1CCN(C(=O)c3ccco3)CC1)C2 | -6.3 | 14.1 | 11.0 | 4.7 | i
N#C[C@@H]1[C@H](c2ccc(C#Cc3ccccc3F)cc2)[C@H](CO)N1C(=O)c1cccnc1 | -1.7 | -19.2 | -54.9 | 6.4 | i
C[C@@H]1CN([C@H](C)CO)C(=O)c2cc(Br)cnc2O[C@@H]1CN(C)C(=O)c1ccc(F)cc1 | -1.4 | 8.5 | 7.6 | 1.1 | i
COc1ccc(CNC(=O)c2cccc3c(-c4cccc(C(N)=O)c4)coc23)cc1OC | -1.0 | -12.6 | -36.9 | 2.8 | i
Cc1ccccc1S(=O)(=O)NCC[C@@H]1CC[C@H](NC(=O)C2CCCCC2)[C@H](CO)O1 | -1.0 | -0.1 | 10.4 | 2.2 | i
COc1ccc(C(C(=O)NC2CCCCC2)n2c(=O)c(-c3cc4ccccc4[nH]3)nc3ccccc32)cc1 (stereo not given) | -24.7 | 9.4 | 7.0 | 0.9 | i
C[C@@H]1CCCCO[C@H](CN(C)C(=O)Cc2ccccc2)[C@@H](C)CN([C@H](C)CO)C(=O)c2cc(NC(=O)Nc3cccc4ccccc34)ccc2O1 | -4.2 | 1.6 | 8.0 | -1.0 | i

Structures shown so far that contain bromine, in the order listed:
SMILES | MLL AF4-AF9 inh | Ecoli rRNA inh | Ecoli rRNA inh OD600 | Ecoli rRNA inh RFP | FGF22 binding
C[C@H](CO)N1C[C@H](C)[C@H](CN(C)Cc2ccncc2)Oc2ncc(Br)cc2C1=O | 2.9&-5.0&-3.9 | 2.0&6.1 | 5.1&6.7 | -1.0&-1.6 | i
C[C@@H]1CN([C@H](C)CO)C(=O)c2cc(Br)cnc2O[C@@H]1CN(C)C(=O)c1ccc(F)cc1 | -1.4 | 8.5 | 7.6 | 1.1 | i

(further entries)
SMILES | MLL AF4-AF9 inh | Ecoli rRNA inh | Ecoli rRNA inh OD600 | Ecoli rRNA inh RFP | FGF22 binding
O=C(C[C@@H]1C=C[C@@H](NC(=O)Nc2cc(F)ccc2F)[C@H](CO)O1)NCc1ccc2c(c1)OCO2 | -1.7 | 0.3 | 4.6 | 3.2 | i
O=S(=O)(CCc1ccccc1)CS(=O)(=O)CCc1ccccc1 | -1.3 | 0.2 | 4.5 | -4.4 | i
C[C@@H]1CN([C@H](C)CO)C(=O)Cc2cc(NC(=O)Nc3ccc4c(c3)OCO4)ccc2O[C@H]1CN(C)S(C)(=O)=O | 2.5 | 2.0 | 9.5 | -1.8 | i
C[C@H]1CN([C@@H](C)CO)C(=O)Cc2cc(NC(=O)CCCN(C)C)ccc2O[C@H]1CN(C)S(=O)(=O)c1ccc(F)cc1 | -3.8 | -0.8 | 5.1 | 0.5 | i
COc1ccc(S(=O)(=O)N(C)C[C@H]2Oc3ccc(NC(=O)NC4CCCCC4)cc3CC(=O)N([C@H](C)CO)C[C@H]2C)cc1 | 0.5 | -1.4 | -5.7 | 1.3 | i
C[C@H](CO)N1C[C@H](C)[C@@H](CN(C)Cc2ccc(Cl)c(Cl)c2)Oc2ccc(NS(C)(=O)=O)cc2CC1=O | 4.0 | -37.1 | -68.6 | 4.9 | i
CCCNC(=O)C[C@H]1CC[C@H]2[C@@H](COC[C@H](O)CN2Cc2cccc(F)c2)O1 | -0.2 | -1.3 | 2.4 | 1.3 | i
COc1ccc2c3c([nH]c2c1)[C@@H](CO)N(CC1CCOCC1)CC31CN(C(=O)C2CC2)C1 | -0.6 | 1.9 | 9.4 | 1.3 | i
C[C@H](CO)N1C[C@H](C)[C@@H](CN(C)CC2CCCCC2)Oc2ccc(NS(C)(=O)=O)cc2CC1=O | 2.2 | 1.5 | -1.6 | -1.8 | i
O=C(Nc1ccc2c(c1)OCO2)N[C@@H]1C=C[C@H](CC(=O)N2CCN(c3ccccc3)CC2)O[C@@H]1CO | -13.9 | -0.7 | -6.1 | -1.3 | i
COc1ccc(NC(=O)N(C)C[C@H]2Oc3ccc(NC(=O)C4CC4)cc3C(=O)N([C@H](C)CO)C[C@H]2C)cc1 | -13.0 | 5.9 | 13.0 | -1.7 | i
CC(C)NC(=O)C1(C)CCN1Cc1cccc(C#N)c1 (stereo not given) | -2.4 | 7.1 | 14.1 | -2.7 | i
CCCC#Cc1cnc2c(c1)C(=O)N([C@H](C)CO)C[C@@H](C)[C@H](CN(C)Cc1ccncc1)O2 | -7.0 | 1.0 | 5.9 | -1.8 | i
C[C@@H]1CN([C@@H](C)CO)C(=O)CCCn2cc(nn2)CO[C@@H]1CN(C)Cc1ccccc1 | 1.6 | 1.7 | 6.9 | -0.3 | i
C[C@H](CO)N1C[C@H](C)[C@H](CN(C)Cc2ccc(Cl)c(Cl)c2)OCCCC[C@H](C)Oc2ccc(NS(=O)(=O)c3ccc(F)cc3)cc2C1=O | -15.4 | 1.2 | -11.8 | 7.5 | i
